Source: PubChem (several laboratories)
Sa ugtP lethal: growth inhibition of S. aureus ugtP deletion strain | growth inhibition, % (test concentration not listed) | hit rate 0.54% among 330,000 | S. aureus RN4220 ugtP deletion, OD600 growth, 16 h; some inactives read as strong as hits;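 active = z-score under -3 and OD600 up to 0.15 on both plates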;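 note: plate controls were untreated wells for no effect and antibiotic for full effect; wells of about 80 µL received 100 nL stock; the first replicate is given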
Mtb hypoxia rep: inhibitors of hypoxia-regulated fluorescent reporter in Mycobacterium tuberculosis. M. tuberculosis hypoxia-regulated fluorescent reporter, fluorescence. AID 1159583. fluorescence inhibition, % (concentration not given with the values). hit rate 0.1% among 300,000;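 active = 35 to 45% if threefold the growth effect, above 45% if 1.5-fold the growth effect; inactive = the rest, general growth blockers included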;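 note: wells of about 50 µL received 100 nL stock; 0% = vehicle wells and 100% = reference inhibitor wells; whole bacteria with a GFP reporter of the hypoxia response; strong numbers were not always called active; many hits fall short of the cut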
RN4220 kill: S. aureus RN4220 growth inhibition; OD600, 16 h; hit rate 0.33% among 330,000; inhibition, % (test concentration not listed); AID 1259311;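 active = z-score of -3 or lower and OD600 up to 0.18 on both plates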;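 note: plate controls were untreated cells for no effect and reference antibiotic for full effect; stock transfer was 100 nL into about 80 µL; one replicate is shown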
PrP 5UTR inh: inhibition of PrP 5' UTR reporter expression; inhibition, % (test concentration not listed); cell-based PrP 5' UTR mRNA reporter, plate reader; AID 488862; hit rate 0.35% among 340,000;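 active = every replicate at 50% or more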;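 note: 0 = median of the neutral control wells; tested in H4 reporter cells; numbers are from one replicate; inactives centre near -14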
BJeLR lethal: BJeLR cell viability loss; BJeLR (HRASV12) viability, CellTiter-Glo ATP luminescence, 48 h; reference of the scale not given here; inhibition, % (concentration not given with the values); hit rate 0.17% among 300,000; AID 1554;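 active = replicate mean above 50%; inconclusive = above 50% but judged a plate artefact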;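 note: 50 nL library stock added to about 25 µL; numbers are from one replicate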
Bead autofluor: compound fluorescence in toxin protease inhibitor counterscreen; compound autofluorescence counterscreen, microsphere flow cytometry; active compounds read high; fluorescence intensity (test concentration not listed); hit rate 3.1% among 360,000;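 active = at least 3 SD above the mean of all compounds, about 16000 in these data; inconclusive = too few beads counted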;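 note: 100 nL of 1 mM stock went into each well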
Mtb hypoxia rep growth: recorded beside Mtb hypoxia rep, whose call it bears; growth inhibition, %; measured here: M. tuberculosis growth (absorbance);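 0% = vehicle and 100% = reference antibiotic; read after six days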
* hit, by the source's call.

`Clc1ccc(-c2nnc(C3CC3)o2)cc1` gave Sa ugtP lethal 7, Mtb hypoxia rep 13, RN4220 kill 6.6, PrP 5UTR inh -16, BJeLR lethal -3, Bead autofluor 4119 and Mtb hypoxia rep growth 15.
CC(Cc1ccccc1)=NNC(=O)c1cccnc1 was read as Sa ugtP lethal 6, Mtb hypoxia rep 8, RN4220 kill 4.8 and Mtb hypoxia rep growth 2.
For CC(C)[C@H](NC(=O)c1ccccc1F)C(=O)NC1CCCCC1 the results were Sa ugtP lethal 10, Mtb hypoxia rep 0, RN4220 kill 6.6, PrP 5UTR inh -21, Bead autofluor 4860 and Mtb hypoxia rep growth 2.
For O=C(c1cc2c(F)cccc2s1)N1CCCC1 the results were Sa ugtP lethal -13, RN4220 kill 0.3, PrP 5UTR inh -22, BJeLR lethal 8 and Bead autofluor 2432.
Screening FC(F)(F)c1cccc(Nc2nc(N3CCOCC3)nc(N3CCOCC3)n2)c1 returned Sa ugtP lethal -12, Mtb hypoxia rep 13, RN4220 kill 7.6, PrP 5UTR inh -1, BJeLR lethal -11, Bead autofluor 3562 and Mtb hypoxia rep growth 16.
Screening Cc1cnn(-c2ccc3nnc(-c4ccc(Cl)cc4)n3n2)c1 returned Sa ugtP lethal 3, RN4220 kill 3.5, PrP 5UTR inh -6, BJeLR lethal -1 and Bead autofluor 2742.
`O=C(Cc1cccs1)NCc1cccs1` gave Sa ugtP lethal 2, Mtb hypoxia rep 13, RN4220 kill 0.5, PrP 5UTR inh -19, BJeLR lethal -4, Bead autofluor 10862 and Mtb hypoxia rep growth 16.
`CCCCc1cc(=O)oc2cc(OCC(=O)N[C@@H](Cc3ccccc3)C(=O)O)ccc12` gave Sa ugtP lethal -1, RN4220 kill -1.8, PrP 5UTR inh -21, BJeLR lethal -5 and Bead autofluor 4373.
COCCNC(=O)CN1C(=O)COc2ccc(Cl)cc21 was read as Sa ugtP lethal 10, Mtb hypoxia rep 15, RN4220 kill 6.8, PrP 5UTR inh -3, BJeLR lethal -12, Bead autofluor 4195 and Mtb hypoxia rep growth 5.
O=C(CSc1nnc(-c2ccncc2)n1-c1ccc(F)cc1)NNC(=O)c1cccc(O)c1 was read as Sa ugtP lethal -1, Mtb hypoxia rep 2, RN4220 kill 3.7, PrP 5UTR inh -17, BJeLR lethal 6, Bead autofluor 10394 and Mtb hypoxia rep growth 13.

By substructure, the compounds so far containing a Cl atom.
`Clc1ccc(-c2nnc(C3CC3)o2)cc1` gave Sa ugtP lethal 7, Mtb hypoxia rep 13, RN4220 kill 6.6, PrP 5UTR inh -16, BJeLR lethal -3, Bead autofluor 4119 and Mtb hypoxia rep growth 15.
Screening Cc1cnn(-c2ccc3nnc(-c4ccc(Cl)cc4)n3n2)c1 returned Sa ugtP lethal 3, RN4220 kill 3.5, PrP 5UTR inh -6, BJeLR lethal -1 and Bead autofluor 2742.
COCCNC(=O)CN1C(=O)COc2ccc(Cl)cc21 was read as Sa ugtP lethal 10, Mtb hypoxia rep 15, RN4220 kill 6.8, PrP 5UTR inh -3, BJeLR lethal -12, Bead autofluor 4195 and Mtb hypoxia rep growth 5.

(next part)
Screening Cc1ccnc(NC(=O)CSc2ccccn2)c1 returned Sa ugtP lethal 0, Mtb hypoxia rep -7, RN4220 kill -0.1, PrP 5UTR inh -40, BJeLR lethal -12, Bead autofluor 6157 and Mtb hypoxia rep growth 7.
Screening COc1cc(C=NNc2cc(C)nc(NS(=O)(=O)c3ccc(C)cc3)n2)ccc1O returned Sa ugtP lethal -1, Mtb hypoxia rep 3, RN4220 kill 3.8 and Mtb hypoxia rep growth -2.
For C#CCN(CC=C)C(=O)CCc1nnc(COc2ccccc2)o1 the results were Sa ugtP lethal 3, Mtb hypoxia rep 9, RN4220 kill 1.5, PrP 5UTR inh -34, BJeLR lethal 4, Bead autofluor 2183 and Mtb hypoxia rep growth 7.
Screening CC1(C)Cc2ccccc2C(C(=O)c2ccccc2)=N1 returned Sa ugtP lethal 7, Mtb hypoxia rep 10, RN4220 kill 5.6, PrP 5UTR inh -17, BJeLR lethal 0, Bead autofluor 3448 and Mtb hypoxia rep growth 0.
For OCCN1CCN(c2ncnc3ccc(Br)cc23)CC1 the results were Sa ugtP lethal 14, Mtb hypoxia rep 11, RN4220 kill 0.2, PrP 5UTR inh 19, BJeLR lethal 17, Bead autofluor 3945 and Mtb hypoxia rep growth 4.
Screening CCn1c(COc2ccccc2C)nnc1SCC(=O)CC(=O)Nc1ccccc1 returned Sa ugtP lethal -17, Mtb hypoxia rep -13, RN4220 kill 1.4, PrP 5UTR inh -16, BJeLR lethal 5, Bead autofluor 9417 and Mtb hypoxia rep growth 6.
CC(Oc1ccc(S(=O)(=O)N2CCCC2)cc1[N+](=O)[O-])C(=O)NC1(C#N)CCCCC1 (configuration not stated) was read as Sa ugtP lethal -1, Mtb hypoxia rep 8, RN4220 kill 2.3, PrP 5UTR inh -19, Bead autofluor 3625 and Mtb hypoxia rep growth 10.
For CCCc1nnc(NC(=O)CCC(=O)N2CCN(S(=O)(=O)c3ccc(OC)cc3)CC2)s1 the results were Sa ugtP lethal -3, Mtb hypoxia rep 1, RN4220 kill 1.5, PrP 5UTR inh -1, BJeLR lethal 1, Bead autofluor 5120 and Mtb hypoxia rep growth 8.
`Cc1ccc(Cl)cc1N1CCN(S(=O)(=O)c2ccc3c(c2)NC(=O)C(C)C(=O)N3)CC1` (configuration not stated) gave Sa ugtP lethal 9, Mtb hypoxia rep 2, RN4220 kill -8.9, PrP 5UTR inh 4, BJeLR lethal 0, Bead autofluor 4546 and Mtb hypoxia rep growth 6.
For CCc1nn(CC(=O)N2CCCCCC2)c(=O)c2cc3ccccc3n12 the results were Sa ugtP lethal 5, Mtb hypoxia rep 10, RN4220 kill 1.6, PrP 5UTR inh -7, BJeLR lethal -11, Bead autofluor 4459 and Mtb hypoxia rep growth 0.
`Cc1csc2c(N3CCN(C(=O)Nc4ccc(OC(F)(F)F)cc4)CC3)ncnc12` gave Sa ugtP lethal 2, Mtb hypoxia rep 9, RN4220 kill 2.8, PrP 5UTR inh -28, BJeLR lethal -6, Bead autofluor 6279 and Mtb hypoxia rep growth 2.
For CC(C)(C)OC(=O)[C@H](CCCCN)NC(=O)c1nc[nH]c1C(=O)NCCCCCN the results were PrP 5UTR inh -14, BJeLR lethal -3 and Bead autofluor 4289.
Screening O=C1CCCN1c1cccc(Br)c1 returned Sa ugtP lethal 1, Mtb hypoxia rep 14, RN4220 kill 4.9, PrP 5UTR inh 0, BJeLR lethal -6, Bead autofluor 4152 and Mtb hypoxia rep growth 1.
CC(=O)NC(C)c1nc2ccccc2n1CCCN1CCN(c2nc(-c3ccc(C)cc3)cs2)CC1 (configuration not stated) was read as Sa ugtP lethal 7, Mtb hypoxia rep 5, RN4220 kill 2.7 and Mtb hypoxia rep growth 2.
O=C1CC(C2CCCO2)C(=O)N1c1ccccc1 (configuration not stated) was read as Sa ugtP lethal -6, Mtb hypoxia rep -5, RN4220 kill -1.7, PrP 5UTR inh -16, BJeLR lethal 2, Bead autofluor 12380 and Mtb hypoxia rep growth -3.
For O=C(NCCc1ccccc1)C(=Cc1ccc(C(=O)O)cc1)C(=O)NCCc1ccccc1 the results were Sa ugtP lethal -3, Mtb hypoxia rep -4, RN4220 kill -3.5, PrP 5UTR inh -47, BJeLR lethal -6, Bead autofluor 4005 and Mtb hypoxia rep growth 7.
For COc1ccc(CNC(=O)C2CCN(c3nc(-c4ccccc4)nc4c3CCC4)CC2)cc1 the results were Sa ugtP lethal -10, Mtb hypoxia rep -11, RN4220 kill -6.0, PrP 5UTR inh -1, BJeLR lethal 5, Bead autofluor 6996 and Mtb hypoxia rep growth 7.
Screening O=c1cc2c(=O)oc3cc(O)c(O)oc3c2c(O)c1O returned Sa ugtP lethal 18, Mtb hypoxia rep 3, RN4220 kill 7.8, PrP 5UTR inh -4, BJeLR lethal 23, Bead autofluor 3521 and Mtb hypoxia rep growth 5.
`Cc1c(C(=O)Nc2ccccn2)sc2nc3n(c(=O)c12)CCC3` gave Sa ugtP lethal 2, Mtb hypoxia rep 13, RN4220 kill 1.8, PrP 5UTR inh -51, BJeLR lethal 2, Bead autofluor 6418 and Mtb hypoxia rep growth 11.
Screening CCOC(=O)CS(=O)(=O)CC(=O)Nc1ccc([N+](=O)[O-])cc1OC returned Sa ugtP lethal 2, Mtb hypoxia rep -7, RN4220 kill 7.5, PrP 5UTR inh 6, BJeLR lethal -1, Bead autofluor 4125 and Mtb hypoxia rep growth 15.

Ordered by length of the SMILES (ascending): some entries from above
For C#CCN(CC=C)C(=O)CCc1nnc(COc2ccccc2)o1 the results were Sa ugtP lethal 3, Mtb hypoxia rep 9, RN4220 kill 1.5, PrP 5UTR inh -34, BJeLR lethal 4, Bead autofluor 2183 and Mtb hypoxia rep growth 7.
Screening CCn1c(COc2ccccc2C)nnc1SCC(=O)CC(=O)Nc1ccccc1 returned Sa ugtP lethal -17, Mtb hypoxia rep -13, RN4220 kill 1.4, PrP 5UTR inh -16, BJeLR lethal 5, Bead autofluor 9417 and Mtb hypoxia rep growth 6.
Screening CCOC(=O)CS(=O)(=O)CC(=O)Nc1ccc([N+](=O)[O-])cc1OC returned Sa ugtP lethal 2, Mtb hypoxia rep -7, RN4220 kill 7.5, PrP 5UTR inh 6, BJeLR lethal -1, Bead autofluor 4125 and Mtb hypoxia rep growth 15.

The listing continues:
`CCCCCOC(=O)C1=C(C)NC(=O)NC1c1ccccc1` (configuration not stated) gave Sa ugtP lethal -7, Mtb hypoxia rep -5, RN4220 kill -3.8, PrP 5UTR inh 21, BJeLR lethal -2, Bead autofluor 4096 and Mtb hypoxia rep growth 10.
Screening COC(=O)c1ccccc1NC(=O)N1CCN(C/C=C/c2ccccc2)CC1 returned Sa ugtP lethal 6, Mtb hypoxia rep 4, RN4220 kill 2.1, PrP 5UTR inh -9, BJeLR lethal 6, Bead autofluor 20603* and Mtb hypoxia rep growth 4.
COc1ccc(C2CC(O)(C(C)(C)O)NO2)cc1 (configuration not stated) was read as Sa ugtP lethal 4, Mtb hypoxia rep 7, RN4220 kill 5.2, PrP 5UTR inh -12, BJeLR lethal 5, Bead autofluor 8449 and Mtb hypoxia rep growth 7.
`O=C(NCCCN1CCOCC1)c1ccc(NS(=O)(=O)c2ccccc2)cc1` gave Sa ugtP lethal 4, Mtb hypoxia rep 15, RN4220 kill 0.0, PrP 5UTR inh -19, BJeLR lethal -10, Bead autofluor 5988 and Mtb hypoxia rep growth 6.
COc1ccc(NC(=O)CSCC(=O)OCc2cccc(OC)c2OC)cc1 was read as Sa ugtP lethal 12, Mtb hypoxia rep 2, RN4220 kill 6.7, PrP 5UTR inh -21, BJeLR lethal -8, Bead autofluor inconclusive and Mtb hypoxia rep growth 3.
Screening COc1ccc(C2(O)CCN(CCCCOc3ccccc3)CC2)cc1 returned Sa ugtP lethal 9, Mtb hypoxia rep -3, RN4220 kill 5.7, PrP 5UTR inh -27, BJeLR lethal 0, Bead autofluor 7031 and Mtb hypoxia rep growth -2.
For COc1cccc(F)c1C(=O)NC(=O)Nc1ccc2nc(C)oc2c1 the results were Sa ugtP lethal 6, Mtb hypoxia rep 12, RN4220 kill 3.3, PrP 5UTR inh -34, BJeLR lethal -9, Bead autofluor 3772 and Mtb hypoxia rep growth 3.
COc1ccc(OCC(O)Cn2c(Br)nc3c2c(=O)[nH]c(=O)n3C)cc1 (configuration not stated) was read as Sa ugtP lethal 13, Mtb hypoxia rep 9, RN4220 kill 4.0, PrP 5UTR inh -11, BJeLR lethal 0, Bead autofluor 2791 and Mtb hypoxia rep growth 12.
COc1ccc(S(=O)(=O)Nc2ccc(S(=O)(=O)NCC3CCCO3)cc2)cc1 (configuration not stated) was read as Sa ugtP lethal 4, Mtb hypoxia rep -2, RN4220 kill 3.1, PrP 5UTR inh -13, BJeLR lethal -4, Bead autofluor 3811 and Mtb hypoxia rep growth 3.
Screening CC(=O)Nc1ccc(NC(=O)c2ccc(NS(=O)(=O)c3cc(C(C)(C)C)ccc3C)cc2)cc1 returned Sa ugtP lethal -1, Mtb hypoxia rep 10, RN4220 kill 3.7, PrP 5UTR inh -8, BJeLR lethal -2, Bead autofluor 2585 and Mtb hypoxia rep growth -2.
For COc1ccc(NC(=O)C(NC(=O)CNC(C)=O)c2ccc(C)cc2)cc1 (configuration not stated) the results were Sa ugtP lethal 9, Mtb hypoxia rep 4, RN4220 kill 4.7, PrP 5UTR inh -10, BJeLR lethal 2, Bead autofluor 3754 and Mtb hypoxia rep growth 3.
